Compound activity (PubChem BioAssay)
VDR inhibitor: inhibitors of human vitamin D receptor. hit rate 0.93% among 400,000. Potency, µM, inactives show max response, negative = inhibition, actives largely listed as inhibitors. P11473. VDR-SRC2-3 peptide fluorescence polarization, 2 h; active = well fitted inhibition curve with a large enough effect; inconclusive = small, poorly fitted or top-dose-only effect, or another doubt; inactive = no such curve, though single readings can be large or run the other way; also: series mostly up to about 120 µM
Target sequence (P11473 whole entry, looked up): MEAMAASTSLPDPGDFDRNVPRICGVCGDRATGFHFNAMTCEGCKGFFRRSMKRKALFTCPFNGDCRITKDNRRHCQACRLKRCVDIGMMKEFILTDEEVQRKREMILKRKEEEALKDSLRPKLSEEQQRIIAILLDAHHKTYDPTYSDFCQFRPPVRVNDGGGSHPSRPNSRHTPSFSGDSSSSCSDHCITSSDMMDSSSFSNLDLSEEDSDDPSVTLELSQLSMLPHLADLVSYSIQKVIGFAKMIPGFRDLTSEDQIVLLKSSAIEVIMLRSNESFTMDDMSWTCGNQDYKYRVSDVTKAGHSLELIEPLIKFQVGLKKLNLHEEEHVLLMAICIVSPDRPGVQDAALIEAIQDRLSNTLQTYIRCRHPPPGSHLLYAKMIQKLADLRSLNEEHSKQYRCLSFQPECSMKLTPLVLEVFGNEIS
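Measured by FP: displacement of SRC2-3 coactivator peptide from VDR by library compounds, following a two-hour ambient incubation.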
Starred values were filed as active, the others as inactive; ? = inconclusive; & = joins results of further samples. % is scaled to controls: 0 for no effect and ±100 for the full control effect; potency is read from the fitted curve at half-maximal effect.

The first two compounds, to show the layout:
SMILES | VDR inhibitor
O=C(c1cc(-c2ccc(F)cc2)no1)N1CCN(Cc2ccc3c(c2)OCO3)CC1 | 12%
CC(NC(=O)[C@H](C)NC(=O)c1ccco1)c1ccc(S(N)(=O)=O)cc1 (stereo not given in full) | -3%

The listing, from the start:
SMILES | VDR inhibitor
O=C(c1cc(-c2ccc(F)cc2)no1)N1CCN(Cc2ccc3c(c2)OCO3)CC1 | 12%
CC(NC(=O)[C@H](C)NC(=O)c1ccco1)c1ccc(S(N)(=O)=O)cc1 (stereo not given in full) | -3%
CSc1ccc(CN2CCCCCC2)cc1 | -11%
COC(=O)c1ccccc1-n1c(CCC(=O)O)ccc1-c1ccccc1 | -27%&-9%
CN(C)c1nnnn1Cc1ccccc1 | -8%
COc1ccc(-c2cc(C(=O)Nc3c(C)nn(Cc4ccc(F)cc4)c3C)no2)cc1OC | -5%
Cc1ccc(Cc2nc3ccccc3nc2SCC(=O)N2CCN(c3ccccc3F)CC2)cc1 | 7%
Cn1c(Cn2nnc3ccccc32)nnc1SCC(=O)c1ccccc1F | -46%
Cc1nc2sc(C(c3ccc(Cl)cc3)N3CCN(c4ccccc4F)CC3)c(O)n2n1 (stereo not given) | -8%
COC(=O)CCC(=O)c1oc2ccc(OC)cc2c1N | 1%
CCOC(=O)c1c(-c2ccc(C)cc2)csc1NC(=S)NC(=O)c1ccccc1 | 9%
COc1ccc2oc(C(=O)OCC(=O)NCCc3ccccc3)c(C)c2c1 | -6%
COc1ccc(S(=O)(=O)Cc2ccc(C(=O)NCCc3cc(OC)ccc3OC)o2)cc1 | 2%
NC(=O)c1ccccc1NC(=O)c1ccc2c(c1)OCO2 | -5%
CCN1CCN(C(=O)C(=O)c2cn(CC(=O)N3CCCCCC3)c3ccccc23)CC1 | -4%
COc1ccc(OC)c(Nc2nc(N(C)c3ccccc3)nc(N)c2[N+](=O)[O-])c1 | -14%
Cc1[nH]c2ccccc2c1/C=N/NC(=O)c1cc(C(C)C)[nH]n1 | -12%
c1ccc(Nc2nc(N3CCCC3)nc(N3CCOCC3)n2)cc1 | -16%
OCC[C@@H]1C[C@@H](O)[C@H](O)[C@]2(CCCO2)O1 | ?
C=CCC1(C)C(=O)N(c2ccccc2)c2ccccc21 (stereo not given) | 2%
COc1ccc(C)cc1NC(=O)CN1C(=O)COc2ccc(C)cc21 | -12%
CCC(=O)N(Cc1ccco1)Cc1cc2cc3c(cc2[nH]c1=O)OCO3 | 5%
Cc1ccc(NC(=S)c2ccncc2)cc1 | 0%
O=C(COC(=O)c1cccnc1)NC1CCCc2ccccc21 (stereo not given) | -25%
CCC(CC)c1nnc(NC(=O)CCS(=O)(=O)Cc2ccccc2)s1 | -6%
CC[n+]1ccc2cc(OC)c(OC)cc2c1Cc1ccc(OC)c(OC)c1 | -14%
COc1ccc(-c2cc(C(F)(F)F)nc(NCc3ccc(Cl)cc3)n2)cc1 | -1%
CCOC(=O)c1sc2ccc(S(=O)(=O)N3CC(C)CC(C)C3)cc2c1N (stereo not given) | 5%
CCOC(=O)N1CCN(C(=O)c2ccc(OC)cc2)CC1 | -14%
Cn1c(=O)cc(OCCCC(=O)NCc2ccccn2)c2ccccc21 | -20%
COc1ccc(CCN2CC(C(=O)N(C)C3CCOCC3)CCC2=O)cc1 (stereo not given) | -11%
Cn1c(N)c(S(=O)(=O)c2ccc(Br)cc2)c2nc3ccccc3nc21 | 5%
COc1ccc(C(=O)NC(=S)Nc2ccc(N3CCCC3)cc2)cc1OC | -18%
COc1ccc(-c2nc3cc(NC(=O)COc4ccccc4C)ccc3o2)cc1 | 11%
O=C(OCC(=O)N1CCc2ccccc21)c1c2c(nc3ccccc13)CCCCC2 | 2%
COc1ccc(Oc2ccc3c(C(F)(F)F)cc(C(F)(F)F)nc3n2)cc1 | 27%
Cc1cccc(OCCSc2nc3ccc(NC(=O)COc4ccccc4F)cc3s2)c1 | 12%
O=C(c1cccc(Cl)c1)N1CCC(=O)N(C(COCc2cccc(Cl)c2)Cc2ccccc2)CC1 (stereo not given) | -7%
CCCC(=O)Nc1ccc2nc(SCc3ccc(C)cc3)sc2c1 | 12%
O=C(Nc1ccc(S(=O)(=O)NCC2CCCO2)cc1)c1ccccc1 (stereo not given) | 12%
CC(=O)N1Cc2cc([N+](=O)[O-])ccc2Oc2ccccc21 | -13%
CC(C)[C@H](NC(=O)c1ccccc1)C(=O)OCC(=O)Nc1ncc(Cl)cc1Cl | 2%
COc1ccc(CNC(=O)c2nn(-c3ccccc3C)nc2CO)cc1 | -5%
C[C@@H]1CCCCCCCCC(=O)OCCN1C(=O)OC(C)(C)C | -20%
COc1ccc(CC(=O)N(C)C2CCCCC2)cc1S(=O)(=O)N1CCOCC1 | -9%
CCOC(=O)N1CCN(C(=O)CSc2ccc3nnc(-c4ccncc4)n3n2)CC1 | -18%
CC(C)(C)NC(=O)c1ccc2c3c(cccc13)CC2 | -7%
Cc1cccc(C)c1NC(=O)CSc1nnc([C@H](C)NC(=O)OC(C)(C)C)o1 | -12%
COc1ccc(CCCc2nnc(SCC(=O)Nc3cccc(F)c3C)o2)cc1 | -4%
COc1ccc(N(CC(=O)NCc2ccco2)S(=O)(=O)c2ccc(C)cc2)cc1OC | 0%
N=c1c2c3c(sc2ncn1Cc1ccco1)CCCCC3 | -18%
Cc1cccc(NC(=O)Cn2nnc(C(=O)NCc3cccs3)c2N)c1 | -21%
COc1ccc(NC(=O)/C(C#N)=C/c2ccc(C)o2)cc1 | -6%
Cc1cc(C)c(C)c(C(=O)COC(=O)CNC(=O)CN2C(=O)c3ccccc3C2=O)c1C | -4%
CCN(c1ccccc1)S(=O)(=O)c1cc2c(cc1C)n(C)c(=O)c(=O)n2C | 1%
CCCCC1(CO)C(=O)N(c2ccccc2)N(c2ccccc2)C1=O | -18%
O=C(Nc1cccc2ncccc12)c1ccc(Br)c([N+](=O)[O-])c1 | 6%
Cc1cc(C)cc(NC(=O)COC(=O)c2ccc3c(c2)OCCO3)c1 | 9%
CCOC(=O)N1CCN(C(=O)CSc2nnc(Cc3ccccc3)o2)CC1 | -3%
COc1ccc(-c2c(-c3ccsc3)oc(=O)c3cc(OC)c(OC)cc23)cn1 | -12%

(list continues)
SMILES | VDR inhibitor
COc1cccc(N2CCN(C(=O)c3cc4c(=O)n(Cc5ccco5)ccc4nc3C)CC2)c1 | -3%
O=C(Nc1cccc2ccccc12)c1ccc(F)cc1 | -1%
COc1ccc(NS(=O)(=O)c2cc(NC(=O)c3cc(F)c(F)cc3Cl)ccc2N2CCOCC2)cc1 | 15%
CCOc1ccc(N(CC(=O)NCC2CCCO2)S(=O)(=O)c2ccc(C)cc2)cc1 (stereo not given) | -13%
CCN1CCN(C(=O)/C=C/c2ccc3c(c2)OCO3)CC1 | -2%
NC(Cc1cnc[nH]1)C(=O)Nc1ccc2ccccc2c1 (stereo not given) | 2%
Cc1ccc(C(=O)NNC(=O)CSc2nc(N)cc(N)n2)cc1 | 0%
CCOC(=O)C1CCN(C(=O)c2cc(S(=O)(=O)N3CCCCC3)ccc2C)CC1 | 10%
Cc1nc2c(C(=O)NC(C)c3ccccc3)cnn2c(C)c1Cc1ccccc1 (stereo not given) | -3%
CC[C@]12c3[nH]c4cc(CCC(=O)N(C)C)ccc4c3CCN1C(=O)[C@@H](CC(=O)NCCCn1ccnc1)C[C@@H]2C(=O)N1CCN(C(=O)C2CC2)CC1 | -4%
CCN1CCCC1CNC(=O)CCc1nnc(CCC2CCCCC2)o1 (stereo not given) | -9%
CN(C)CCCN(C(=O)c1ccc(N2C(=O)CCC2=O)cc1)c1nc2c(F)cccc2s1 | -12%
COc1ccc(CCNC(=O)CCCCn2c(=O)c3ccccc3n(Cc3ccccc3C)c2=O)cc1OC | 8%
C=CCN(C(=O)Nc1ccc2oc(C)nc2c1)c1ccccc1 | 15%
COC(=O)CSC1=C(C#N)C(c2ccc(Cl)cc2)C(C(=O)OC)C(=O)N1 (stereo not given) | -19%
CC(C)Cn1c(CN2CCN(C)C(CCO)C2)nc2ccccc21 (stereo not given) | -18%
Cc1ccc(S(=O)(=O)c2nc(-c3ccccc3Cl)oc2N2CCN(C)CC2)cc1 | -12%
CCC1CC(C(=O)Nc2ccccc2)C(=O)O1 (stereo not given) | -15%
COc1ccc(N2CCN(Cc3cc(=O)oc4ccc(C)cc34)CC2)cc1 | 2%
CCOc1ccc(NC(=O)c2cc3sc(Cl)cc3n2CC)cc1 | -1%
Brc1cccc(-c2n[nH]c(-c3ccccc3)n2)c1 | -9%
Cc1ccc(SCC(=O)NC2CCS(=O)(=O)C2)cc1 (stereo not given) | -12%
Cc1nn(Cc2ccccc2)c(C)c1C(=O)N1CCN(S(=O)(=O)/C=C/c2ccccc2)CC1 | -22%
CN(C)CC#CCOC(c1ccccc1)c1ccccc1 | 2%
CN(C(=S)Nc1ccc(Oc2ccccc2)cc1)C1CCCCC1 | -13%
O=C(CSc1nc2ccccc2o1)NC1CCCC1 | 11%
CCn1nc(C)c(Br)c1-c1nc(CS(=O)(=O)c2ccc(F)cc2)no1 | -8%
COc1cc(C(O)CO)ccc1O (stereo not given) | -9%&0%
CCOc1ccc(N2CC(C(=O)Nc3ccccc3C(=O)N3CCOCC3)CC2=O)cc1 (stereo not given) | 13%
Cc1ccc(NS(=O)(=O)c2ccc(-n3cccn3)cc2)c(C)c1 | 5%
O=C(NCC1CCCO1)C1CCN(C2CCN(C(=O)C3CCCCC3)CC2)CC1 (stereo not given) | -4%
CCOc1cc(N2CCOCC2)c(OCC)cc1NC(=O)COC(=O)c1c(CC)noc1C | 7%
O=C1ON=C(c2ccccc2)/C1=C/c1ccc(O)cc1 | 35µM*
COc1cc(C(C)=O)ccc1OC(C)C(=O)Nc1ccc(S(=O)(=O)N2CCCC2)cc1 (stereo not given) | 8%
CC(=O)Nc1ccc(NC(=O)c2ccc3c(c2)N(Cc2cccc(Cl)c2)C(=O)c2ccccc2S3(=O)=O)cc1 | 2%
CCNc1ncc2nc(-c3cccs3)c(=O)n(-c3ccc(OC)cc3)c2n1 | 3%
C/C(=N\NC(=O)c1nn(C)c(C)c1Br)c1ccc(NC(=O)c2ccccc2F)cc1 | 8%
CCN(CC)S(=O)(=O)c1ccc(N2CCOCC2)c(NC(=O)c2ccc(C#N)cc2)c1 | 6%
COCCCn1nnnc1SCC(=O)N1c2ccccc2CC1C (stereo not given) | -30%
CCOC(=O)CC1C(=O)NCCN1S(=O)(=O)c1ccc(NC(C)=O)cc1 (stereo not given) | -4%
CSc1ccc(CCNC(=O)c2ccc(-n3c(C)cc4c3CCC(C)C4)cc2)cc1 (stereo not given) | 4%
Cc1nn(CCCC(=O)Nc2sc3c(c2C#N)CCC3)c(C)c1[N+](=O)[O-] | ?
CN1CCC(=NNC(=O)c2ccc(N(Cc3ccc(Cl)cc3)S(C)(=O)=O)cc2)CC1 | -19%
Cc1ccc(S(=O)(=O)N2CCCC(C(=O)N(Cc3cccs3)C3CC3)C2)cc1 (stereo not given) | -22%
O=C1/C(=C/C=C/c2ccco2)SC(=S)N1NS(=O)(=O)c1ccccc1 | -19%

Quoted at random: five records from the list
SMILES | VDR inhibitor
CC(=O)Nc1ccc(NC(=O)c2ccc3c(c2)N(Cc2cccc(Cl)c2)C(=O)c2ccccc2S3(=O)=O)cc1 | 2%
CCOC(=O)c1c(-c2ccc(C)cc2)csc1NC(=S)NC(=O)c1ccccc1 | 9%
COc1ccc(OC)c(Nc2nc(N(C)c3ccccc3)nc(N)c2[N+](=O)[O-])c1 | -14%
COc1ccc(N(CC(=O)NCc2ccco2)S(=O)(=O)c2ccc(C)cc2)cc1OC | 0%
COc1ccc(CCCc2nnc(SCC(=O)Nc3cccc(F)c3C)o2)cc1 | -4%

Of the compounds above, these contain a tert-butyl group:
SMILES | VDR inhibitor
C[C@@H]1CCCCCCCCC(=O)OCCN1C(=O)OC(C)(C)C | -20%
CC(C)(C)NC(=O)c1ccc2c3c(cccc13)CC2 | -7%
Cc1cccc(C)c1NC(=O)CSc1nnc([C@H](C)NC(=O)OC(C)(C)C)o1 | -12%

Other records:
SMILES | VDR inhibitor
CCCCN(C(=O)CC(c1ccccc1)c1ccccc1)c1c(N)n(CCC)c(=O)[nH]c1=O | -13%
c1ccc(Cn2nnnc2C(c2cccs2)N2CCOCC2)cc1 (stereo not given) | -5%
O=C(CCNS(=O)(=O)c1ccccc1C(F)(F)F)N1CCN(C(c2ccccc2)c2ccccc2)CC1 | -12%
CCCn1cc(S(=O)(=O)c2cc(C)ccc2C)c(=O)c2cc(F)c(N3CCN(CC)CC3)cc21 | -9%
COc1ccccc1C(=O)Nc1ccc(S(=O)(=O)NC2=NCCCCC2)cc1 | -10%
O=C(CSc1ncnc2c1cnn2CCc1ccccc1)Nc1cccc(C(F)(F)F)c1 | 7%
O=C(NC1CC(=O)N(c2ccc(F)cc2)C1)c1cc2ccccc2o1 (stereo not given) | 25%
CN(C)c1ccc(C(=O)OCC(=O)N2CCOCC2)cc1 | -5%
CCOC(=O)c1c(NC(=O)CN2CCCc3ccccc32)sc(C(C)=O)c1C | -4%
COC(=O)C(C(=O)OC)C(C(C)C)C(C(=O)OC)C(=O)OC | -11%
CCOC(=O)C1=C(C)NC(C)=C(C(=O)OCC)C1c1ccc(Br)o1 | -17%
Cc1ncc(CO)c2c1Oc1nc(-c3ccccc3F)nc(SCC(=O)N(C)c3ccccc3)c1C2 | 15%
NC(=O)c1cccnc1Nc1cccc([N+](=O)[O-])c1 | -2%

A portion of the library; count on the stated rates, not on these rows.
